Compound activity: PubChem, several laboratories
Beta apoptosis: blocks beta cell apoptosis | INS-1E cytokine-induced death, ATP luminescence, 48 h; percent of positive-control rescue, neutral wells zero | 300,000 tested, 0.8% active | protection from apoptosis, % (test concentration not listed);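 active means all replicates at 75% or more, or half of them and the mean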;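 further: 0% = cytokine-treated negative control wells and 100% = positive control rescue; higher means more ATP so stronger rescue from cytokine killing; wells of about 40 µL received 100 nL stock; the first replicate is given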
Calb FLC: C. albicans growth modulation with fluconazole. C. albicans CaCi-2 (fluconazole-resistant clinical isolate) + fluconazole, Alamar Blue growth, 48 h. AID 1979. growth inhibition, % (concentration not given with the values). 300,000 tested, 0.57% active;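 active means most replicates above 75%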;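 further: all wells also contain fluconazole at 8 µg/ml as a sub-toxic cotreatment; 0% = median of DMSO wells and 100% = median of geldanamycin control wells; wells of about 8 µL received 7.5 nL stock; the first replicate is given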
B2AR ag: agonists of human beta-2 adrenergic receptor inducing internalization; 340,000 tested, 0.43% active; Am2.2-beta2AR cells, FAP receptor internalization, flow cytometry; reference of the scale not given here; response, % (test concentration not listed);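 active means response above a set limit, near 3 SD of response in nonfluorescent compounds, cut at about 42% in these data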;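 further: stock transfer was 100 nL into about 11 µL; a reference agonist was the positive control; negative values mostly stem from fluorescent compounds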
Target sequence (P07550 whole entry, looked up): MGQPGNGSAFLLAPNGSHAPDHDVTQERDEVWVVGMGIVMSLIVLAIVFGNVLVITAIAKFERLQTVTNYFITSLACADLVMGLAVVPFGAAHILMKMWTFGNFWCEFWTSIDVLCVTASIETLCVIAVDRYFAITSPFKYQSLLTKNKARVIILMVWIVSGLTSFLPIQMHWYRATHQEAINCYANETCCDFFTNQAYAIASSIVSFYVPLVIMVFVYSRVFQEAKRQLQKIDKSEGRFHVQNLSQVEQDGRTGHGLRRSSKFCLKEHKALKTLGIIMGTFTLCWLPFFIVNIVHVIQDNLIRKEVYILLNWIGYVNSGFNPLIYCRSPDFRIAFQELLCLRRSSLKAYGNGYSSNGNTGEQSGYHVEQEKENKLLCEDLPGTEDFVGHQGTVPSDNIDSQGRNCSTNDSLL
T cruzi inh: blocks replication of Trypanosoma cruzi; inhibition, % (no concentration beside the values); 300,000 tested, 1.4% active; T. cruzi beta-gal in NIH3T3, luminescence, 90 h;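 active means mean inhibition across valid replicates above about 55%, limit read from the data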;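 further: signal also drops with host cell toxicity which is not excluded here; 0% = plate median of DMSO wells and 100% = zero luminescence signal; higher percent means less beta-gal luminescence so fewer parasites; stock transfer was 50 nL into about 50 µL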
rRNA inh HTS: inhibits bacterial ribosomal RNA function over humanized ribosomes | E. coli WT GFP vs humanized-ribosome RFP mutants, fluorescence, 24 h; active compounds read low; DMSO median 0, no signal -100 | GFP signal change (wild-type ribosome), % (concentration not given with the values) | 350,000 tested, 1.6% active | AID 720706;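 active means significant combined selectivity score with lowered wild-type GFP, culture density cut under 30%, mutant RFP and density less affected; inactive means any of these conditions unmet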; further: one replicate is shown; some compounds called inactive have numbers as strong as hits
Bfl-1 A1 inh: inhibitors of the anti-apoptotic protein A1, read as caspase activation; caspase activation, % (test concentration not listed); MEF A1-2A-BIM cells, Caspase-Glo 3/7 luminescence, 3 h; percent of clofoctol response, vehicle zero; 330,000 tested, 0.066% active;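 active means over half of replicate activation scores above 10%, or exactly half above 10 with the replicate mean above 10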;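 further: wells of about 30 µL received 50 nL stock; many hits fall short of the cut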
LANA-H2B inh: blocks KSHV LANA binding to histone H2A/H2B; cell-free LANA-H2A/H2B peptide, fluorescence polarization; inhibition, % (test concentration not listed); Q9QR71; 320,000 tested, 0.6% active; in the data active means inhibition mostly above about 10%, no sharp cut-off; inactive means mostly below about 6.7%;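 further: stock transfer was 7.5 nL into about 10 µL; 0% = median of vehicle wells and 100% = median of positive control wells; one replicate is shown; the record names a cut of 25% in any replicate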
ALR inh: human ALR oxidase inhibition via reduced H2O2. purified ALR, DTT oxidation, H2O2 HRP-luminol luminescence. 290,000 tested, 3.8% active. inhibition, % (no concentration beside the values). P55789;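 active means mean and each replicate at 75% or more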;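 further: stock transfer was 7.5 nL into about 7.5 µL; 0% = neutral wells and 100% = wells with inactivated enzyme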
Target sequence (P55789 whole entry, looked up): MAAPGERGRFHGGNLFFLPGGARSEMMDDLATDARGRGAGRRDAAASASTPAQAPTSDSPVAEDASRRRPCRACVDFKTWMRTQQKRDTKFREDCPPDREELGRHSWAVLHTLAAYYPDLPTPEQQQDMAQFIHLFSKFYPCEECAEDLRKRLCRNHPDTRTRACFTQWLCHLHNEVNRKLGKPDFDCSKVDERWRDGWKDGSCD
rRNA inh HTS OD600: second read-out of rRNA inh HTS, no call of its own (marks repeat the call); OD600 change, %; measured here: OD600 growth;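 optical density of the mix in the first replicate; 0 = DMSO median and -100 = no signal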
rRNA inh HTS RFP: second read-out of rRNA inh HTS, no call of its own (marks repeat the call); RFP signal change, %; measured here: RFP humanized mutant strains;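 first replicate; 0 = DMSO median and -100 = no signal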
The depositor's hits bear a star; . = no result given; + = active, no number. The list is partial (hit frequency here may not be typical).

| cpd | mol | Beta apoptosis | Calb FLC | B2AR ag | T cruzi inh | rRNA inh HTS | rRNA inh HTS OD600 | rRNA inh HTS RFP | Bfl-1 A1 inh | LANA-H2B inh | ALR inh |
| --- | --- | --- | --- | --- | --- | --- | --- | --- | --- | --- | --- |
| 1 | CN1CCC(N(C)S(=O)(=O)c2ccc(F)cc2F)CC1 | -6 | -7 | -6 | 3 | -2 | 10 | -2.0 | -0.9 | 5.5 | 0 |
| 2 | O=C(Nc1ccc(C(=O)N2CCOCC2)cc1)c1ccc([N+](=O)[O-])cc1 | . | -3 | -1 | 1 | . | . | . | -1.0 | -5.0 | -22 |
| 3 | COc1ccccc1NC(=O)/C=C/c1ccc(OC)c(S(=O)(=O)N2CCOCC2)c1 | -2 | -1 | 4 | 1 | -16 | -7 | -3.0 | 1.3 | -0.3 | -7 |
| 4 | Cc1[nH]n(C(C)(C)C)c(=O)c1Sc1ccccc1 | -4 | 10 | -4 | -1 | . | . | . | 0.1 | 2.7 | 18 |
| 5 | O=S(=O)(O)c1ccc(SCc2ccccc2)nc1 | -4 | -6 | 2 | -24 | 11 | 14 | 2.5 | -5.1 | 2.2 | -8 |
| 6 | COCCNc1nc(N)c([N+](=O)[O-])c(Nc2ccc(F)cc2)n1 | 5 | 6 | -18 | -29 | 4 | 14 | -1.2 | -1.5 | 4.6 | -11 |
| 7 | O=C(CNC(=O)c1ccncc1)N/N=C/c1cccc([N+](=O)[O-])c1 | 0 | -15 | 4 | -17 | 18 | 14 | -2.8 | 0.3 | 6.1 | -7 |
| 8 | COc1ccc(NCC(=O)N/N=C/C=C\c2ccccc2)cc1 | 5 | -12 | 3 | 10 | 11 | 17 | 3.1 | 0.2 | 6.5 | -44 |
| 9 | COc1cc(Cl)c(C)cc1NC(=O)CN1C(=O)C2CC=CCC2C1=O (configuration not stated) | -6 | . | 20 | . | 1 | -16 | 2.8 | -0.3 | 0.4 | -10 |
| 10 | Cc1ccc(NC(=S)NCCO)c(C)c1 | -5 | 0 | 5 | -6 | . | . | . | 2.7 | -1.6 | -1 |
| 11 | CCCCS(=O)(=O)N1C2=NC(C(=O)OC)=C(C(=O)OC)[C@@H]3N(C)c4ccc(OC)cc4[C@]23C[C@H]1C(=O)OC | -2 | -6 | 1 | -3 | . | . | . | 0.3 | -3.9 | -11 |
| 12 | Cc1ccc(CNC(=O)c2ccc3c(c2)S(=O)(=O)c2ccccc2C3=O)o1 | -2 | -1 | 13 | -8 | . | . | . | -0.4 | 6.2 | -3 |
| 13 | O=C(NNC(=O)c1ccccc1Br)c1ccccc1Cl | -4 | 34 | 2 | 1 | 11 | 14 | 2.8 | 1.1 | -4.5 | -13 |
| 14 | C/C(=C\c1ccc2c(c1)OCO2)C1Nc2cccc3cccc(c23)N1 | 4 | . | 14 | . | -8 | 25 | 2.7 | -1.2 | 5.3 | -15 |
| 15 | CCOc1ccccc1/C=C(\C#N)C1=CCCC1 | -3 | 31 | -1 | 2 | 1 | -4 | -1.8 | 0.1 | -1.8 | . |

Three entries already listed, ordered by their value in ALR inh, low to high:
| item | SMILES | B2AR ag | rRNA inh HTS | rRNA inh HTS OD600 | rRNA inh HTS RFP | LANA-H2B inh | ALR inh |
| --- | --- | --- | --- | --- | --- | --- | --- |
| 14 | C/C(=C\c1ccc2c(c1)OCO2)C1Nc2cccc3cccc(c23)N1 | 14 | -8 | 25 | 2.7 | 5.3 | -15 |
| 13 | O=C(NNC(=O)c1ccccc1Br)c1ccccc1Cl | 2 | 11 | 14 | 2.8 | -4.5 | -13 |
| 10 | Cc1ccc(NC(=S)NCCO)c(C)c1 | 5 | . | . | . | -1.6 | -1 |

Full records, looked up by structure.
Entry for CN1CCC(N(C)S(=O)(=O)c2ccc(F)cc2F)CC1 = Beta apoptosis = -6; Calb FLC = -7; B2AR ag = -6; T cruzi inh = 3; rRNA inh HTS = -2; rRNA inh HTS OD600 = 10; rRNA inh HTS RFP = -2.0; Bfl-1 A1 inh = -0.9; LANA-H2B inh = 5.5; ALR inh = 0
Entry for Cc1ccc(CNC(=O)c2ccc3c(c2)S(=O)(=O)c2ccccc2C3=O)o1 = Beta apoptosis = -2; Calb FLC = -1; B2AR ag = 13; T cruzi inh = -8; rRNA inh HTS = .; rRNA inh HTS OD600 = .; rRNA inh HTS RFP = .; Bfl-1 A1 inh = -0.4; LANA-H2B inh = 6.2; ALR inh = -3
Entry for O=C(NNC(=O)c1ccccc1Br)c1ccccc1Cl = Beta apoptosis = -4; Calb FLC = 34; B2AR ag = 2; T cruzi inh = 1; rRNA inh HTS = 11; rRNA inh HTS OD600 = 14; rRNA inh HTS RFP = 2.8; Bfl-1 A1 inh = 1.1; LANA-H2B inh = -4.5; ALR inh = -13

Next section
| cpd | mol | Beta apoptosis | Calb FLC | B2AR ag | T cruzi inh | rRNA inh HTS | rRNA inh HTS OD600 | rRNA inh HTS RFP | Bfl-1 A1 inh | LANA-H2B inh | ALR inh |
| --- | --- | --- | --- | --- | --- | --- | --- | --- | --- | --- | --- |
| 16 | Cn1cccc1CNCc1ccccc1Cl | -4 | -18 | 2 | 9 | . | . | . | 0.9 | -0.9 | -4 |
| 17 | C=CCC[C@@H](Cc1ccc(F)cc1)C(=O)OC[C@@H](Cc1c[nH]c2ccccc12)NC(=O)[C@@H](CC=C)CC(=O)N(CCO)Cc1ccccc1 | -3 | . | -1 | . | 7 | 29 | 0.7 | -0.4 | + | -1 |
| 18 | O=C(NCCCn1cccn1)C1CCC(=O)N(Cc2cccc(C(F)(F)F)c2)C1 (configuration not stated) | . | -10 | 4 | -11 | 2 | 4 | 3.2 | . | . | -10 |
| 19 | CCC(c1nnnn1Cc1ccc2c(c1)OCO2)N1CCN(c2ccc(F)cc2)CC1 (configuration not stated) | 8 | 0 | -4 | 2 | . | . | . | -0.3 | 2.5 | 40 |
| 20 | Cc1ccc(C(=O)NCC(=O)NC23CC4CC(CC(C4)C2)C3)cc1 | -3 | -20 | -4 | 2 | 8 | 16 | 0.3 | 0.0 | -1.8 | -2 |
| 21 | CC1(C)C2CCC1(C)C(NC(=O)/C=C/c1ccccc1)C2 (configuration not stated) | 7 | -12 | -1 | 26 | -8 | -28 | 1.0 | -1.5 | -8.0 | . |
| 22 | CCOC(=O)c1ccc(NC(=O)c2nc[nH]c2C(=O)N2CCC(C)CC2)cc1 | -2 | -9 | -5 | -7 | 1 | 2 | 1.4 | -0.3 | -1.2 | 8 |
| 23 | O=S(=O)(c1ccc(NC2CCCCC2)cc1)N1CCOCC1 | -2 | -26 | 0 | -2 | . | . | . | 0.6 | 2.4 | -7 |
| 24 | O=C(CC(=O)NC1CCCCC1)N/N=C/c1ccccc1Cl | -10 | 1 | -6 | -13 | . | . | . | -0.3 | 3.1 | -3 |
| 25 | Cc1ccc(C(=O)/C=C/Nc2cccc(O)c2)cc1 | -1 | -6 | 11 | -17 | . | . | . | -5.9 | 6.2 | 10 |
| 26 | O=C(c1ccc2c3n(nc2c1)-c1ccccc1CO3)N1CCCCC1 | 59 | -11 | -2 | -10 | -8 | 0 | -8.4 | -9.7 | -1.7 | -13 |
| 27 | CCN(CC)CCNC(=O)c1ccc(NC(=O)/C=C/c2ccc3ccccc3n2)cc1 | -4 | 6 | -1 | 24 | 0 | -6 | 2.5 | -1.7 | 4.3 | 22 |
| 28 | CC(Sc1nc(N)cc(=O)[nH]1)C(=O)NCC(=O)Nc1ccc(F)c(F)c1F (configuration not stated) | 1 | . | -4 | . | 6 | 0 | 0.3 | -0.5 | -3.9 | 2 |
